Assay outcomes from PubChem.
RE007 growth inh = less growth of the S. pombe RE007 Vpr strain | S. pombe RE007 Vpr strain, BacTiter-Glo ATP luminescence, 24 h; control for the full effect not named in the record | Potency, µM (top dose mostly 92.2 µM), for inactives: top-dose activity change, negative = less growth | actives 0.21% (n = 360,000) | AID 651644; active = well fitted falling curve with a large enough effect; inconclusive = small, poorly fitted or top-dose-only effect; inactive = no such curve, though single readings can be large or run the other way;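 note: % is set by controls: 0 for no effect and ±100 for the full control effect; nearly all actives have a fitted effect of over 50% in size; the assay follows cell death caused by Vpr and the record does not say whether a fall means rescue or toxicity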
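Fission yeast strain RE007, carrying one chromosomally integrated HIV-1 vpr copy, was seeded at OD 0.01 in PMG+AL medium with 23 nL pinned compound. After 24 h at 30 °C and 99% humidity, viability was read by BacTiter-Glo luminescence.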
StopGo reporter = FMDV 2A StopGo reporter, luciferase signal; human cells with a luciferase reporter of 2A StopGo recoding; control for the full effect not named in the record; Potency, µM (doses to about 57.9 µM), for inactives: at the top dose signal change, negative = less light; actives 1.2% (n = 410,000); active = well fitted falling curve with a large enough effect; inconclusive = small, poorly fitted or top-dose-only effect; inactive = no such curve, though single readings can be large or run the other way; tested in HEK293T cells; note: % is set by controls: 0 for no effect and ±100 for the full control effect; nearly all actives have a fitted effect of over 45% in size; luciferase light after 4 h
SARS PLpro yeast = inhibitors of SARS-CoV papain-like protease in yeast | actives 0.19% (n = 330,000) | S. cerevisiae expressing SARS-CoV PLpro, growth rescue; control for the full effect not named in the record | Potency, µM (doses to about 32.9 µM), inactives show top-dose activity, positive = growth rescue; active means well fitted rising curve with a large enough effect; inconclusive means small, poorly fitted or top-dose-only effect; inactive means no such curve, though single readings can be large or run the other way; note: 0% is about no effect; nearly all actives have a fitted effect of over 55% in size; growth read by luminescence after 48 h
Cruzain inh noDet = cruzain (T. cruzi) inhibition without detergent; P25779; actives 2.3% (n = 200,000); Potency, µM, inactives show max response, negative = inhibition, actives largely listed as inhibitors; AID 1476; purified cruzain, Z-FR-AMC fluorescence, no detergent;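 note: plate controls were enzyme without inhibitor for no effect and buffer without enzyme for full effect; nearly all actives have a fitted effect of over 40% in size; top concentration of the series not given in the record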
Target sequence (P25779 123-467 limits assumed): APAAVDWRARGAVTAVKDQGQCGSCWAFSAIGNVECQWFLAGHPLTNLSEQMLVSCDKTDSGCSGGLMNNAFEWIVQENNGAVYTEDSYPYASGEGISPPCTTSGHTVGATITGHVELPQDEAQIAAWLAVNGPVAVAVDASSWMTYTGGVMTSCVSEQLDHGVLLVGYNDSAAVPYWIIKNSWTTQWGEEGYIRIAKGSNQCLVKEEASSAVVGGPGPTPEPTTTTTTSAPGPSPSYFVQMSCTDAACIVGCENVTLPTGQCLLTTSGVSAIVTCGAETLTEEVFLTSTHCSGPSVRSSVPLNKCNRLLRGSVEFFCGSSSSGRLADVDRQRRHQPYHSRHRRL
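Detergent-free condition (0.00005% Triton X-100) in acetate buffer pH 5.5 with DTT. 1.5 nM enzyme and compound were pre-mixed 15 min, then 2 uM Z-FR-AMC substrate added; reaction progress from fluorescence change between first and third reads (60 s).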
Cruzain Triton = inhibitors of Trypanosoma cruzi cruzain with detergent; P25779; purified cruzain, Z-FR-AMC fluorescence, 0.01% Triton; Potency, µM, inactives show max response, negative = inhibition, hits mostly inhibitors; actives 0.43% (n = 200,000);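 note: plate controls were neutral wells for no effect and buffer without enzyme for full effect; nearly all actives have a fitted effect of over 40% in size; top concentration of the series not given in the record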
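Enzyme 1.5 nM, Z-FR-AMC 2 uM, NaOAc 100 mM pH 5.5, DTT 5 mM, Triton X-100 0.01%; 15 min RT compound preincubation; kinetic ex360/em450, 60 s delta.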
MARV entry inh = inhibitors of Marburg virus binding or cell entry; Marburg virus pseudotyped entry inhibition, cell reporter; control for the full effect not named in the record; about a third of the inactives were read at about 46 µM; Potency, µM (highest dose often 37.8 µM), inactives show at the highest dose activity change, negative = inhibition, hits mostly inhibitors; AID 540276; actives 1.8% (n = 300,000); active = well fitted inhibition curve with a large enough effect; inconclusive = small, poorly fitted or top-dose-only effect, or effect the other way; inactive = flat fitted curve, though single readings scatter; tested in HEK293 cells; about a fifth of its hits are not listed in these tables; note: % is set by controls: 0 for no effect and ±100 for the full control effect; luciferase read-out
LASV entry inh = blocks Lassa virus binding to or entry into cells; AID 540256; Potency, µM (highest dose often 37.9 µM), for the others: at the top dose activity change, negative = inhibition, hits mostly inhibitors; actives 1.2% (n = 300,000); Lassa virus pseudotype entry inhibition, cell reporter; control for the full effect not named in the record; active means well fitted inhibition curve with a large enough effect; inconclusive means small, poorly fitted or top-dose-only effect, or effect the other way; inactive means flat fitted curve, though single readings scatter; tested in HEK293 cells; note: % is set by controls: 0 for no effect and ±100 for the full control effect; nearly all actives have a fitted effect of over 50% in size; luciferase read-out
NS1 function inh = influenza NS1 inhibition | S. cerevisiae slowed by influenza A NS1, growth recovery by OD600 | Potency, µM (titrated, usually from 46.1 µM), inactives show at the top dose activity, positive = more growth | actives 0.4% (n = 270,000); active means well fitted rising curve with a large enough effect; inconclusive means small, poorly fitted or top-dose-only effect; inactive means no such curve, though single readings can be large or run the other way; note: nearly all actives have a fitted effect of over 50% in size
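Recovery from NS1-induced slow growth read by OD600 in budding yeast switched to galactose assay medium (pH 6.0, -URA) at 1:100 dilution. Compound 23 nl per well; the matching strain lacking NS1 serves as control.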
* marks the source's active call; other numbers are inactive results; ? = inconclusive; . = no result given; & = joins results of further samples; [ ] = another dose, or the depositor's remark. Unless noted, calls come from the whole dose curve; as a rule, active = well fitted curve in the direction sought with a large enough effect; inconclusive = small, poorly fitted or top-dose-only effect, or another doubt; inactive = no such curve, though single readings can be large; an effect the other way counts as inactive or inconclusive. Potency is the fitted concentration of half-maximal effect.

SMILES | RE007 growth inh | StopGo reporter | SARS PLpro yeast | Cruzain inh noDet | Cruzain Triton | MARV entry inh | LASV entry inh | NS1 function inh
COc1ccc(-c2cc(C(=O)Nc3sc4c(c3C#N)CCCC4)no2)cc1OC | . | -13% | . | -10% | -4.1% | ? | 12%[46.1 µM] | .
CCn1c(CCNC(=O)c2cccs2)nnc1SCC(=O)Nc1cccc(Cl)c1 | -10% | -10% | . | . | . | -28% | 6% | .
O=C(N=C1SC2CS(=O)(=O)CC2N1c1ccc(Cl)cc1)C1CCCO1 (stereo unspecified) | 4% | -16% | ? | . | . | . | . | 3%
COc1ccccc1-n1c(SCC(=O)O)nc2c(sc(=S)n2-c2ccc(Cl)c(C)c2)c1=O | -16% | -12% | 1% | . | . | . | . | 13%
Cc1cc(C)c(C(=O)Nc2cccc(F)c2)c(Cl)n1 | -26% | -3% | 4% | . | . | -27% | -9% | .
CNC(=O)C1CC(=O)N(CCc2ccc(C)cc2)C1 (stereo unspecified) | 1% | 14% | 1% | . | . | ? | 5%[46.1 µM] | 3%
CC(=O)OC1CCC2(C)C(=CC(=O)C3C2CCC2(C)C(OC(C)=O)CCC32)C1 (stereo unspecified) | -9% | -24% | . | . | . | 23% | 11% | .
Clc1ccc(CNc2nc(CN3CCOCC3)nc3scc(-c4ccccc4)c23)cc1 | 13% | 14µM* | 5% | 26% | -12% | 20µM* | ? | -33%
COc1ccc(CCNc2cc(C)nc(N)n2)cc1OC | -15% | -3% | 1% | . | . | . | . | 3%
Cc1ccc(-n2c(=O)c3c(C)c(C(=O)N(C)C)sc3n(Cc3ccccc3C)c2=O)cc1C | . | -25% | . | -1% | 3.3% | . | 26%[46.1 µM] | .
COCCn1c(CN2CCN(c3cccc(Cl)c3)CC2)nc2c1c(=O)n(C)c(=O)n2C | 8% | -2% | -7% | ? | -8.2% | 0% | . | -4%
N#Cc1cccc(C(=O)Nc2ccccc2C(=O)NC2CC2)c1 | -3% | -19% | 8% | . | . | -2%[46.1 µM] | -9% | .
C/C(=C\c1ccccc1)CN1CCN(C)CC1 | -8% | -12% | 7% | . | . | . | . | 2%
COC(=O)c1ccccc1NC(=O)CSCC(=O)Nc1ccccc1 | 6% | -4% | -3% | -1% | 3.7% | ? | -10% | -4%
COc1cc(-c2noc(-c3cc(C(C)C)[nH]n3)n2)cc(OC)c1OC | . | -16% | . | ? | -4.6% | . | -2%[46.1 µM] | .
CCOC(=O)c1c(NC(=O)CSc2nnnn2-c2ccccc2)sc2c1CCC(C)C2 (stereo unspecified) | 26% | -18% | -6% | -25% | -3.6% | -11%[46.1 µM] | 0% | 5%
O=C(/C=C/c1ccccc1F)c1ccoc1 | ? | ? | -3% | 2% | -2.4% | -5% | ? | -39%
COc1ccc(S(=O)(=O)Cc2ccc(C(=O)NCc3ccc(F)cc3)o2)cc1 | . | . | 0% | -5% | -6.9% | 7% | . | -14%
CCn1cc(C(=O)NCCc2ccc(Cl)cc2)c(=O)c2cc(S(=O)(=O)N3CCCCCC3)ccc21 | . | 0% | . | -3% | -2.1% | -21%[46.1 µM] | 21%[46.1 µM] | .
Cc1ccc(S(=O)(=O)NCCC(=O)NCCc2ccccc2)cc1 | 3% | 26% | . | . | . | ? | 6% | .
CCCc1cc(=O)[nH]c(SCC(=O)Nc2ccc(C)cc2)n1 | 7% | -3% | -1% | . | . | . | . | -2%
COc1ccc(OC)c(CNC(=O)CCc2cn(C)c3ccccc23)c1 | -5% | 1% | 0% | . | . | . | . | -4%
COC(=O)c1[nH]c2ccc(Br)cc2c1NC(=O)CN1CCCc2ccccc21 | -3% | 7% | -14% | ? | -10% | ? | ? | 29%
CC(C)(C)C1CCc2nc(NC(=O)Cc3cn4ccsc4n3)sc2C1 (stereo unspecified) | 6% | 41%[activator] | -11% | 15% | -12% | -6% | -2% | ?
O=S(=O)(NCc1cc(-c2ccccc2Cl)no1)c1ccc(Cl)cc1 | 32µM* | 2% | -11% | -2% | -2.4% | 22% | 13% | -60%
CCCCCOc1ccc(C(C)(O)C(CN2CCOCC2)c2ccccc2)cc1 (stereo unspecified) | -28% | -23% | -2% | . | . | . | . | 1%
COc1ccc(NC(=O)C(c2ccc(OC)cc2)N(C)C(=O)c2cnccn2)cc1 (stereo unspecified) | -10% | -3% | 12% | -4% | -3.1% | 6% | -12% | 3%
O=C(CSc1cn(CCNC(=O)c2c(F)cccc2F)c2ccccc12)NCC1CCCO1 (stereo unspecified) | 5% | -27% | -5% | . | . | -20% | 5% | 3%
COc1ccc(CC(NC(C)=O)C(=O)NC2CCN(C(=O)NCc3ccccc3)CC2)cc1OC (stereo unspecified) | 12% | 10% | 6% | -4% | 3.4% | 1%&-6% | 38%[14.3 µM] | 8%
CC(C)c1nc2sc3c(=O)[nH]c(=S)[nH]c3c2c2c1CCCC2 | 4% | -12% | -1% | . | . | -1%[46.1 µM] | 22% | -3%
CCOc1ccccc1C(=O)NCC(=O)OCC(=O)c1ccc2c(c1)OCCO2 | 18% | 4% | 2% | ? | 25µM* | ? | 14% | -10%
Cc1cc(NCc2ccccn2)n2nc(C)c(-c3ccc(Cl)cc3)c2n1 | 3% | -27% | 0% | . | . | 10µM* | ? | -4%
Cc1ccc(NC2CCCN(C(=O)c3cc(C(C)C)[nH]n3)C2)cc1C (stereo unspecified) | -1% | -5% | -3% | . | . | 7% | ? | 17%
O=C(NCCS(=O)(=O)c1ccc(Br)cc1)c1ccc(Cl)cc1 | -1% | -29% | -6% | . | . | -1%[46.1 µM] | 0%[46.1 µM] | -5%
O=[N+]([O-])c1ccc(NCc2ccc(Cl)cc2)nc1 | 31% | -5% | -2% | . | . | ? | -29%[46.1 µM] | -5%
Cc1ccc(/C(N)=N/OC(=O)CCc2ccccc2)cc1 | -12% | . | -2% | -5% | -5.1% | 3% | 15% | -17%
COc1cc(/C=C(\C#N)c2ccccn2)ccc1OCc1ccccc1Cl | -13% | 1% | 5% | ? | -3.6% | ? | ? | 11%
CCN(CC)CCCNC(=O)c1cn(CC(C)C)c(=O)c2c1c1ccccc1n2C | -16% | -7%&-20% | 1% | -3% | -1.9% | ? | 17%&26%[46.1 µM] | 1%
CC(=O)OCC(=O)C1(O)CCC2C3CCC4C(OC(C)=O)C(=O)CCC4(C)C3C(=O)CC21C (stereo unspecified) | -13% | -27% | . | . | . | 1% | -10% | .
Cc1nonc1NCn1nnc2ccccc21 | 17% | -11% | -5% | 8% | 6.4% | 19% | ? | 11%
O=c1[nH]ncc(N/N=C\c2ccc(O)cc2O)c1Cl | -8% | 1% | 0% | . | . | -2%[46.1 µM] | -7%[46.1 µM] | .
O=C1Nc2ccc(S(=O)(=O)Nc3ccccc3O)c3cccc1c23 | . | 45%[activator] | . | 6% | -6.5% | 5%[46.1 µM] | -7%[46.1 µM] | .
Cn1nc([N+](=O)[O-])c(C(C#N)c2nc3ccccc3n2C)c(Cl)c1=O (stereo unspecified) | -5% | -9% | 0% | -10% | -7.2% | 0% | 2% | 10%
CSc1nnc(-c2sccc2-n2cccc2)o1 | -8% | -7% | -3% | . | . | 12%[46.1 µM] | 1%[46.1 µM] | .
COc1ccc(C(=O)COC(=O)c2ccc(NC(C)=O)cc2)cc1[N+](=O)[O-] | -11% | 0% | 2% | 4% | -6.9% | -8%[46.1 µM] | 4% | -12%
Cc1ccc(S(=O)(=O)Nc2cccc(C(=O)NCC(c3ccco3)N3CCCCC3)c2)cc1F (stereo unspecified) | -20% | -7% | 1% | . | . | ? | 7% | .
CC(C)(C)NC(=O)CSCc1ccc(Br)cc1 | 1% | 0% | -1% | . | . | . | . | -2%
Cc1nn(CC#N)c(=O)n1-c1cccc(F)c1 | 6% | -10% | 8% | 2% | 3.5% | 4%[46.1 µM] | 5% | 0%
COCCNC(=O)CN1CCCCCC1 | 11% | 10% | 0% | . | . | -13%[46.1 µM] | 7%[46.1 µM] | 2%
Cc1cc(C(=O)OCC(=O)NCc2ccco2)c(C)o1 | -23% | 9% | -1% | . | . | -4%[46.1 µM] | 1% | .
COc1ccc(N2CCN(c3nc(Cl)nc(N4CCOCC4)n3)CC2)cc1 | 9% | ? | 14% | ? | -4.2% | -18% | -12% | 14%
COc1ccccc1CCNC(=O)c1cc2c(=O)n3cccc(C)c3nc2n1C | . | -1% | . | ? | -26% | . | -20%[46.1 µM] | .
COc1ccc(-c2c(C(F)(F)F)oc3cc(OCC(=O)Nc4ccccc4C(F)(F)F)ccc3c2=O)cc1OC | . | ? | ? | ? | -3.9% | 1% | -26% | 11%
C=CCn1c(O)c(C=Nc2ccccc2)sc1=S | 2% | 43%[activator] | -2% | . | . | -1%[46.1 µM] | ? | -2%
CCOc1ccc(-c2cnc(NCc3ccc(OC)cc3OC)n2C)cc1 | . | -25% | . | -5% | 0.1% | ? | ? | .
COc1cc(C(=O)N(Cc2ccccn2)CC2CCCO2)cc(OC)c1OC (stereo unspecified) | -5% | 16% | 2% | 7% | 3.6% | ? | 39%[14.3 µM] | -3%
Cc1cccc(C)c1NC(=S)NCCc1ccccn1 | 5% | -3% | -4% | 2% | -0.5% | -1% | 0% | 27%
COc1cccc(C(=O)N/N=C/c2ccc(OC3CSC3)cc2)c1 | 6% | 11% | -2% | -12% | -3.4% | -22% | -12% | 4%
CCOC(=O)C1CCCN(S(=O)(=O)c2cccc3cccnc23)C1 (stereo unspecified) | -3% | -5% | 1% | -18% | 2.2% | -10% | 14% | -10%
